# Screens (PubChem BioAssay)
# PABP polyA inh: PABP poly(A) RNA binding inhibitors, primary screen, biochemical, fluorescence polarization, uHTS. Polyadenylate-binding protein 1 (Homo sapiens), P11940. inhibition, % at 35 µM. actives 1% (n = 290,000). AID 2014, 2009;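 active means 50% or more with normal probe brightness, or confirmed in later tests; about a fifth of its hits are not listed in these tables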;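 further: calls also rest on retests at 20 µM and on dose response follow-up; controls were probe without protein and protein plus probe with vehicle; some compounds called inactive have numbers as strong as hits; many hits fall short of the cut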
# Yeast UUG start: modulators of yeast start codon fidelity, primary screen, whole organism, S. cerevisiae, single point, plate reader. S. cerevisiae UUG-firefly luciferase reporter, luminescence/redox ratio. activity score, % at 18.7 µM. actives 0.13% (n = 350,000);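 active means replicate mean at a twofold rise or more, about +100% in these data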;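 further: firefly luciferase made from a UUG start codon reports start codon fidelity; reporter light over untreated wells divided by growth signal over untreated wells; some hits fall short of that in this replicate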
# MT1-MMP act inh: blockers of MT1-MMP proenzyme processing, primary screen, HT1080 RFP-PRO-GFP cells, GFP/RFP fluorescence. Matrix metalloproteinase-14 (Homo sapiens), P50281. GFP/RFP ratio fluorescence, overnight; percent of plate control window, DMSO zero. GFP/RFP ratio change, % at 20 µM. actives 0.061% (n = 360,000). AID 651647, 2012;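 active means GFP/RFP ratio change of at least 30% with cell ATP level not reduced by more than half and red fluorescence within 50% of control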; further: strong numbers were not always called active
#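 Test system: HT1080 RFP-PRO-GFP cells; Benchmarks: DMSO and RFP-L50D-GFP cell wells; Timing: cells overnight before dosing, compound overnight, 37 °C, 5% CO2; Compound: one 20 µM compound dose with 1% DMSO; Read-out: GFP/RFP fluorescence ratio.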
# HIV Env fusion: inhibitors of HIV-1 Env-driven cell-cell fusion, primary screen, HeLa-JRFL effector, CEM21 target cells, luciferase. inhibition, % at 12.3 µM. actives 1.1% (n = 360,000). AID 651610, 2012;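 active means mean replicate inhibition score of at least 50 and every replicate individually at or above 50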;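 further: 0% = plate neutral controls and 100% = maraviroc near 300 nM; one replicate is shown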
# eIF4H inh: human eIF4H binding inhibitors, primary screen, translation initiation inhibitor project, biochemical, uHTS, fluorescence polarization | Eukaryotic translation initiation factor 4H (Homo sapiens), Q15056 | eIF4H fluorescence polarization binding assay | inhibition, % at 35 µM | actives 0.94% (n = 290,000) | AID 2012, 2009;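 active means 50% or more with normal probe brightness, or confirmed in later tests; about a fifth of its hits are not listed in these tables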;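 further: calls also rest on retests at 20 µM and on dose response follow-up; 0% = protein and probe with vehicle and 100% = probe without protein; strong numbers were not always called active; many hits fall short of the cut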
# CSC inhib: cancer stem cell viability inhibitors, primary screen, luminescence | actives 1.1% (n = 300,000) | inhibition, % at 7.5 µM | cancer stem cell-like cells viability;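 active means mean at 75% or more and at least half the replicates too; tested in HMLE shEcad cells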;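 further: 0% = median of negative and 100% = median of positive control wells; the first replicate is given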
# Rce1 inh: yeast Rce1p protease inhibitors, primary screen, biochemical, fluorescence, cell-free homogeneous. CAAX prenyl protease 2 (Saccharomyces cerevisiae (strain ATCC 204508 / S288c)), Q03530. calls only. actives 0.27% (n = 290,000). yeast membranes, quenched prenylated peptide cleavage fluorescence;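 active means fall in fluorescence gain of 50% or more versus controls, with final raw signal at or below 3038400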;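 further: plate controls were neutral control wells for no effect and wells lacking membranes for full effect; tested at 10 µM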
# Target sequence (Q03530 whole entry, looked up): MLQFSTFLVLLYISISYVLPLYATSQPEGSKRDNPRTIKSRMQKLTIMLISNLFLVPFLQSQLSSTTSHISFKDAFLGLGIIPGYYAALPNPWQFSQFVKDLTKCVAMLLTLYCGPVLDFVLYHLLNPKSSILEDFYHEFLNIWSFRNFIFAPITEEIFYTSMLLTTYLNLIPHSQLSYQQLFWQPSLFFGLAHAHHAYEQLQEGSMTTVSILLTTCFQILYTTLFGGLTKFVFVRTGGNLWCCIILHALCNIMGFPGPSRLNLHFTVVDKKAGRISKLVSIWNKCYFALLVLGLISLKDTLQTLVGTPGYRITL
# eIF4H inh retest: second read-out of eIF4H inh, no call of its own (marks repeat the call); inhibition, %; compound at 20 µM; confirmation average;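 mean of two retest wells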
# PABP polyA inh retest: also measured in PABP polyA inh; calls as there; inhibition, %; compound at 20 µM; confirmation repeats;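 mean of two retest wells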
# MT1-MMP act inh RFP: second read-out of MT1-MMP act inh, no call of its own (marks repeat the call); RFP signal change, %; measured here: RFP expression control read;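 0 = vehicle wells; hits needed this value within 50% of zero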
# * = called active by the depositor; i = inactive; nt = not tested or not shown. Some of the compounds tested (hit frequency here may not be typical).
SMILES,PABP polyA inh,Yeast UUG start,MT1-MMP act inh,MT1-MMP act inh RFP,HIV Env fusion,eIF4H inh,CSC inhib,Rce1 inh,others
CCCNC(=O)COC(=O)CCC(=O)c1cccs1,6.5,nt,1.5,3.7,1.9,-7.2,7.1,i,
Cc1ccc2nc(SCC(=O)N3c4ccccc4CC3C)c(C)cc2c1 (stereo not drawn),4.4,3.1,-2.1,-4.1,nt,-3.4,11.6,i,
O=C(NN1C(=O)CSC1=S)C(=O)NN1C(=O)CSC1=S,10.8,-26.6,4.5,8.7,6.7,75.2,-7.9,i,eIF4H inh retest=-12.2;PABP polyA inh retest=-9.9
O=C(COC(=O)/C=C/c1ccc(Br)o1)Nc1ccc2[nH]c(=O)[nH]c2c1,nt,-12.0,0.4,-2.3,-13.9,nt,-2.6,i,
COc1ccc(C(=O)COC(=O)C2CCC(=O)N2)cc1 (stereo not drawn),6.5,nt,4.9,4.7,-2.7,2.5,10.2,i,
Cc1ccc(-n2nc(C)c(=O)c(-c3ccccc3)c2NC(=O)C(C)C)cc1,-2.7,41.6,0.5,-0.3,-7.3,6.7,-7.1,i,
Cc1cc(NC(=O)CSc2nc3cc(Cl)ccc3c(=O)n2Cc2ccco2)no1,-2.5,-9.4,-2.4,-1.2,-3.9,3.4,22.9,i,
O=C(NCCC1=CCCCC1)C(=O)c1c[nH]c2ccccc12,-4.1,nt,-2.1,-2.4,nt,-10.1,nt,i,
CN(C)c1ccc(-c2csc(C(C)(O)c3cccc(F)c3)n2)cc1 (stereo not drawn),nt,-20.3,-3.9,-16.4,-106.3,nt,nt,nt,
O=C(NC1CC1)c1cccc(NC(=O)C2CCC2)c1,nt,-17.9,1.4,4.8,14.0,nt,nt,nt,
O=C(CSc1n[nH]c(-c2ccncc2)n1)Nc1ccc(Br)cc1,0.5,-6.1,0.6,-0.1,3.8,-4.3,15.3,i,
COc1cccc(CN(C)c2nc(-c3cccs3)nc3ccccc23)c1,-3.3,nt,-9.6,-5.2,8.6,0.6,50.3,i,
C[C@H](NC(=O)C1CC(=O)N(c2ccc3c(c2)OCCO3)C1)C(=O)N1CCC(C(=O)O)CC1 (stereo partly drawn),1.2,nt,7.2,0.4,-7.4,-8.2,2.9,i,
CCOc1ccccc1N1CC(C(=O)N(Cc2nnc(-c3ccccc3Cl)o2)C2CC2)CC1=O (stereo not drawn),nt,-5.5,-3.3,-0.6,1.6,nt,-3.8,i,
N#Cc1c(Cl)nsc1NN,-5.5,nt,-1.1,-0.9,-10.9,1.9,-8.9,i,
NC(=O)c1ccccc1O,14.8,-3.4,5.2,7.0,1.3,-5.5,-11.9,i,
COc1sc(SC)cc1/C=N/NC(=O)c1ccncc1,2.0,-23.1,1.0,4.5,6.1,-1.9,1.3,i,
Fc1cccc(CN2CCN(c3ncccn3)CC2)c1,63.1,-12.2,3.4,1.9,54.3,26.8,-5.8,nt,eIF4H inh retest=-0.7;PABP polyA inh retest=-0.8
Cc1ncc(CC(=O)n2cc(C(=O)c3cc(F)ccc3O)cn2)s1,-1.1,-17.2,-2.8,8.2,-22.6,12.6,-7.1,i,
CC(Sc1ccc(Br)cc1)C(N)=O (stereo not drawn),7.4,-1.9,1.2,2.5,28.0,-1.7,1.9,i,
CN(C)CCNC(=O)C(C(=O)c1ccccc1)n1ccccc1=O (stereo not drawn),-4.1,-11.7,1.8,0.8,-79.0,-1.8,-8.7,i,
CCC(=O)N1CCCc2cc(S(=O)(=O)NCc3cccs3)ccc21,-7.1,-3.5,6.7,1.8,-31.4,0.4,-14.2,i,
CCC(C)c1ccc(-c2cc(C(=O)OCC(=O)Nc3cc(C)on3)c3ccccc3n2)cc1 (stereo not drawn),-10.8,-11.9,3.1,2.8,nt,-4.4,nt,i,
Cc1ccc(-c2nc3ccccc3c(=O)n2CCCN2CCOCC2)cc1,4.5,nt,-2.2,-0.5,-6.9,-2.9,-13.8,i,
COc1cc(C(=O)NCC(c2ccco2)N2CCCC2)ccc1OCc1ccc(Cl)cc1Cl (stereo not drawn),nt,-8.4,3.3,-2.9,1.8,nt,nt,nt,
Cc1ccc(NC(=O)CN(C)C(=O)CNC(=O)c2ccc3c(c2)OCO3)cc1,nt,-9.3,2.5,1.9,nt,nt,7.0,i,
O=C(O)c1ccc(S(=O)(=O)NC2CCCCCC2)cc1,0.3,-2.1,2.1,2.3,-1.6,-7.0,5.9,i,
CCOc1ccccc1N1CCN(C(=O)c2csc(C)c2CC)CC1,7.4,17.5,-7.7,-1.4,-0.6,-6.7,nt,i,
COc1ccc(Cc2nnc(NC(=O)Cc3cccs3)s2)cc1,72.4*,-18.6,0.0,5.5,nt,71.3*,nt,nt,
COCCn1c(C(=O)N2CCCC2)cc2c1C[C@H]1CN(C(=O)c3ccccc3)[C@@](Cc3ccc(F)cc3)(C(=O)OC)[C@@H]21,9.9,nt,nt,nt,-0.8,3.2,5.4,nt,
CC(C)C12CN3CC(C(C)C)(CN(C1)C3c1ccc([N+](=O)[O-])o1)C2=O (stereo not drawn),-2.7,-9.4,4.5,4.1,1.8,-4.8,-15.7,i,
CC(=O)NCCn1c(SCC(=O)NCCC2=CCCCC2)nc2ccccc2c1=O,-6.5,-6.5,1.4,1.8,-125.6,1.4,0.5,i,
O=C(Nc1cccc(C(F)(F)F)c1)N1CCC(c2nc(-c3ccc(F)cc3)no2)CC1,-11.3,-0.2,-4.2,-16.7,68.8*,-6.9,28.2,i,
COc1ccc(OC(=O)c2ccc3nsnc3c2)cc1,-10.7,-17.7,0.8,-0.8,nt,-9.8,0.1,i,
Cc1nc2sc3c(=O)[nH]nnc3c2c(C)c1Br,34.6,-16.0,0.5,4.1,7.4,-2.3,-5.6,i,
CCOc1ccc(C2C(C(=O)c3ccco3)=C(O)C(=O)N2CCCn2ccnc2)cc1OCC (stereo not drawn),4.1,-15.6,0.6,3.7,-4.8,-20.9,-13.4,i,
Cc1sc(NC(=O)c2ccccc2)c(C(=O)NC(C)C)c1C,0.6,nt,-0.4,-1.5,nt,2.4,-4.4,i,
CCc1ccc(N2CC(C(=O)Nc3cccnc3)CC2=O)cc1 (stereo not drawn),-2.5,14.1,2.0,-1.2,nt,6.0,-10.3,i,
CNC(=O)c1ccc(NC(=O)CCc2c(C)noc2C)cc1,nt,5.1,3.9,0.0,nt,nt,-7.6,nt,
O=S(=O)(NCCc1cn2ccccc2n1)c1ccc2c(c1)OCCO2,2.9,-21.6,4.5,-0.2,2.2,5.3,-5.6,i,
COc1ccc(NC(=O)CSc2ncnc3c2cnn3CCc2ccccc2)cc1,-6.7,nt,-2.0,0.1,nt,2.0,-6.8,i,
Cc1ccc(/C=C2\SC(=S)N(c3cccnc3)C2=O)o1,38.3,nt,11.8,9.4,12.2,50.0,17.3,i,
COc1ccc(CCNC(=O)c2ccc(CSc3ccccc3)o2)cc1,-2.6,nt,-5.1,-1.7,2.3,-16.0,-0.8,i,
COc1ccc(C(=O)c2cn(-c3cccc(Br)c3)nc2C(C)=O)cc1,nt,-24.1,2.1,-2.7,-1.2,nt,-30.6,nt,
CCC(C)(C)C1CCc2nc3ccccc3c(C(=O)OC(C)C(=O)Nc3c(C)n(C)n(-c4ccccc4)c3=O)c2C1 (stereo not drawn),-11.2,nt,-3.1,-15.8,20.8,-1.6,22.0,i,
COc1ccc(N2CCN(CC(O)COc3ccc(C)cc3C)CC2)cc1 (stereo not drawn),12.6,nt,1.4,2.1,6.4,-9.4,-4.8,i,
CC(=O)N1C(Nc2ccc(Cl)cc2)CCN1c1ccccc1 (stereo not drawn),-7.0,-13.6,-1.3,-1.2,20.1,-8.9,64.9,i,
O=C(c1cccs1)N(Cc1cc2ccccc2[nH]c1=O)CC1CCCO1 (stereo not drawn),0.4,-4.1,-2.1,1.8,-1.2,-1.4,-5.3,nt,
CC(CC(=O)N1CCc2ccccc21)c1ccccc1 (stereo not drawn),4.1,-14.1,2.9,-1.9,nt,-3.5,-13.4,i,
O=C(Nc1cc(S(=O)(=O)Nc2ccccc2Cl)ccc1O)c1sc2cc(Cl)ccc2c1Cl,-15.4,nt,9.7,-6.7,-2.9,-2.7,22.2,i,
O=C1S/C(=C/c2ccc(N3CCOCC3)o2)C(=O)N1Cc1c(F)cccc1Cl,118.6,-11.9,-249.0,-4.8,34.2,124.2,7.5,i,eIF4H inh retest=10.7;PABP polyA inh retest=30.5
CCOc1ccccc1C1C2CCCCC2(O)CCN1C(=O)c1cccs1 (stereo not drawn),-4.4,nt,7.5,8.0,-23.8,-5.0,8.5,i,
CCC(=O)Nc1cccc2cccnc12,1.7,-16.3,1.8,5.2,6.5,-3.8,1.9,i,
COc1ccc(S(=O)(=O)N/N=c2\oc3c(OC)cccc3cc2S(=O)(=O)c2ccc(C)cc2)cc1OC,6.7,nt,-4.1,-10.9,3.0,-4.2,nt,i,
COC(=O)/C=C1\SC(=NC(=O)c2ccc(OC)cc2)NC1=O,7.2,-16.1,-3.3,-2.5,-8.3,-11.2,1.6,i,
O=C(Cc1ccc(Br)cc1)N1CCN(c2ccccc2)CC1,-6.6,-5.1,-1.2,-9.0,-32.2,0.2,-7.6,i,
CC(C)(C)OC(=O)N(CCc1ccccc1)Cc1ccc(OCc2cccc(NC(=O)C3CCCC3)c2)cc1,nt,1.0,-4.6,-11.5,17.7,nt,nt,nt,
COC(=O)c1cc2occc2n1CC(=O)Nc1ccc(C)cc1C,0.5,14.3,-3.2,-0.7,-24.2,11.7,2.0,i,
CCCn1c(N)c(N(CCOC)C(=O)c2cc(S(=O)(=O)N3CCCCCC3)ccc2OC)c(=O)[nH]c1=O,2.9,-16.7,-0.4,1.2,-2.4,-10.7,-16.6,i,
O=C(Nc1ccccc1)c1ccc(S(=O)(=O)NCC2CCCO2)cc1 (stereo not drawn),8.1,-18.1,6.5,-6.1,nt,2.0,nt,i,

# Compounds listed so far that have a COOH group:
SMILES,PABP polyA inh,Yeast UUG start,MT1-MMP act inh,MT1-MMP act inh RFP,HIV Env fusion,eIF4H inh,CSC inhib,Rce1 inh,others
C[C@H](NC(=O)C1CC(=O)N(c2ccc3c(c2)OCCO3)C1)C(=O)N1CCC(C(=O)O)CC1 (stereo partly drawn),1.2,nt,7.2,0.4,-7.4,-8.2,2.9,i,
O=C(O)c1ccc(S(=O)(=O)NC2CCCCCC2)cc1,0.3,-2.1,2.1,2.3,-1.6,-7.0,5.9,i,

# (listing goes on)
SMILES,PABP polyA inh,Yeast UUG start,MT1-MMP act inh,MT1-MMP act inh RFP,HIV Env fusion,eIF4H inh,CSC inhib,Rce1 inh,others
COC(=O)c1sccc1NC(=O)c1ccccc1C(=O)O,nt,nt,-1.2,-3.2,-0.5,nt,4.4,i,
CCN(CC)CCCNC(=O)CNC(=O)c1nn(-c2ccc(OC)cc2)c(=O)c2ccccc12,-2.0,nt,3.9,2.9,-2.7,-4.4,nt,i,
O=C(c1cccc(S(=O)(=O)N2CCCCC2)c1)N1CCN(c2ccccc2)CC1,-4.9,1.6,0.6,-3.1,7.7,-7.9,-12.9,i,
O=C(CN(Cc1ccc(F)cc1)C(=O)CCC(=O)Nc1nccs1)NCc1ccccc1,8.7,-11.2,-3.2,-3.0,-8.6,-5.0,nt,i,
